Assay outcomes deposited in PubChem by National Center for Advancing Translational Sciences (NCATS).
AmpC nodet inh: blocks E. coli AmpC beta-lactamase in absence of detergent; P00811; AmpC nitrocefin hydrolysis, absorbance 480 nm, no detergent; potencies from a single point are estimates; Potency, µM (titrated, usually from 28.7 µM), inactives show at the highest dose activity change, negative = inhibition; actives 1.8% (n = 71,000); active = falling curve, for most hits resting on a single point; inconclusive = weak or doubtful change; inactive = flat or rising curve; further: % of control where 0% means no effect; about half of the hits show no inhibition at the top dose; a quarter of the inactives give rising signals
Target sequence (P00811 whole entry, looked up): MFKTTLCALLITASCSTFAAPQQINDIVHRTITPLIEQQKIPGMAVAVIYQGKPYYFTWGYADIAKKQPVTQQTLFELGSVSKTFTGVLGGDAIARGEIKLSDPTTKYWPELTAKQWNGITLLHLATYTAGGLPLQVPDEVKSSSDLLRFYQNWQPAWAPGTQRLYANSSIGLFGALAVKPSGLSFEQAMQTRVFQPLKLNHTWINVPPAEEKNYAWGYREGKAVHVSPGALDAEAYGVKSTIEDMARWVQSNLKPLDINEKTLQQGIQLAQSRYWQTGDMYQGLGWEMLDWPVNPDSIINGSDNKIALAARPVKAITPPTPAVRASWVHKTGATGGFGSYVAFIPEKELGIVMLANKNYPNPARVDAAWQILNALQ
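AmpC in 20 mM phosphate buffer pH 7.0 was preincubated 15 min at room temperature with compounds. Nitrocefin (800 uM stock) was then added and hydrolysis followed at 480 nm every 20 s for 4 min.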
Starred values were filed as active, the others as inactive; [ ] = remark or other dose. Potency means the concentration at half of the fitted maximal effect.

SMILES	AmpC nodet inh
COC(=O)c1ccc(CN2C(=O)NC3(CCCc4ccccc43)C2=O)o1 (stereo not drawn)	10%
COc1ccc(S(=O)(=O)Nc2cc(C)cc(C)n2)c2ccccc12	9%
Cc1ccc(-n2c(=O)cc(N3CCN(C(=O)c4ccco4)CC3)[nH]c2=O)cc1	-2%
N=c1c2c3c(sc2nc2n1CCCCC2)CCCCC3	16%
Cn1cccc1C(=O)N1CCC2(CC1)CN(Cc1ccc(C#N)cc1)C2	7%
Cc1ccc(C(C)C)c(OCCCN2CC(C)OC(C)C2)c1 (stereo not drawn)	81%
O=S(=O)(c1cccc(Cl)c1)N1CCCC1	0%
C#C[C@@]1(O)CC[C@H]2[C@H]3CCC4=Cc5oncc5C[C@]4(C)[C@@H]3CC[C@@]21C	25%
CCOC(=O)c1c(NC(=O)CN2CCCCC2)sc2c1CCCC2O (stereo not drawn)	66%
C=CCc1cccc(C2Nc3ccccc3C(=O)N2O)c1O (stereo not drawn)	-14%
O=c1cc(N2CCc3ccccc32)[nH]c(=O)n1Cc1ccc(F)cc1	-16%
O=C(Nc1nncs1)C1c2ccccc2Oc2ccccc21	-5%
CCC(=O)Nc1cc(C)c(NC(=O)c2ccco2)cn1	2%
O=C(Cc1ccccc1)NCCc1cn2ccsc2n1	-3%
COc1ccc(CCNC(=O)CCC(=O)N2CCN(S(=O)(=O)c3ccccc3)CC2)cc1OC	74%
NC(=O)/C(=C\c1ccncc1)c1cccc2ccccc12	1%[5.75 µM]
Cc1cccc(NC(=O)C2C(C(=O)O)C3C=CC2C32CC2)c1C (stereo not drawn)	3%
C[C@@H]1C=C[C@](Cc2ccccc2)(C(=O)NCCc2c[nH]c3ccccc23)N1C(=O)c1ccccc1	10%
S=C(c1ccc(N2CCCC2)cc1)N1CCCCC1	-5%
O=C(c1ccccc1)C1CCc2occc2C1=O (stereo not drawn)	2%
CCOC(=O)c1cn(CC(=O)Nc2ccc(C(C)C)cc2)nn1	8%
COC(=O)Nc1nc2ccc(SC(C)C)cc2[nH]1	1%[12.8 µM]
c1ccc2nc3c(nc2c1)sc1nc2ccccc2n13	1%
COc1ccc(OCCNS(=O)(=O)c2ccccc2)cc1	-11%
O=C1CN(C(=O)COC(=O)c2ccccc2NC(=O)c2ccco2)c2ccccc2N1	38%

The list goes on.
SMILES	AmpC nodet inh
CCCCc1ccc(NS(=O)(=O)N(C)C)cc1	8%
O=c1cc(CSc2nnc(COc3ccccc3)o2)c2ccccc2[nH]1	0%
CCN(CC(=O)O)C(=O)c1cccnc1	-1%[5.75 µM]
Cc1ccccc1C(=O)O	-7%
NC(=O)C1CCN(C(=O)CN2CCCc3ccccc32)CC1	5%
Cc1ccc(C(O)c2cccnc2)o1 (stereo not drawn)	7%
CCn1c(NC(=O)c2ccco2)c(-c2ccccc2Cl)c(=O)c2ccccc21	-6%
CCOC(=O)C1=C(c2ccccc2)Nc2ncnn2C1c1cc(OC)ccc1OC (stereo not drawn)	60%
COc1ccccc1NC(=O)CSc1nnc(-c2ccco2)n1Cc1ccco1	-6%
COC(=O)C(C)Oc1ccc2c3c(c(=O)oc2c1)CCCCC3 (stereo not drawn)	38%
COC(=O)c1cc(OC)c(OC)cc1NC(=O)c1ccc(Br)o1	-4%
COCCCN1Cc2cccc(C(=O)O)c2C1=O	-4%
Cc1ccc2c(c1)nnn2C1CCN(S(C)(=O)=O)CC1	-3%
CCOc1ccc(C(=O)N2CCCC2C(=O)O)cc1 (stereo not drawn)	-6%
CC(CC1C(C#N)=C(N)OC2=C1C(=O)CCC2)c1ccccc1 (stereo not drawn)	0%
CCCCNC(=O)c1ccc2c(c1)N(CC)C(=O)CS2	-4%
CCOc1cc2[nH]c(=O)n(CC3CCC(C(=O)NC4CCCCC4)CC3)c(=O)c2cc1OCC (stereo not drawn)	13%
COCCn1nnnc1C(c1ccc(O)c(OC)c1)N1CCc2ccccc2C1 (stereo not drawn)	10%
Cc1cc(=O)oc(C)c1C(=O)NCCC(C)C	11%
COc1ccccc1OCC(=O)NCCNC(=O)COc1ccccc1OC	98%
Cn1c2ccccc2c2c(C(=O)N3CCC4(CC3)OCCO4)cn(C3CCCCC3)c(=O)c21	91%
CCCc1[nH]nc2c1C(c1ccc(Br)s1)C(C#N)=C(N)O2 (stereo not drawn)	-21%
O=S(=O)(NCC1CCN(S(=O)(=O)c2ccccc2)CC1)c1ccccc1	-5%
Cc1nc2cnc(Oc3cccc(Cl)c3)nc2n(C2CC2)c1=O	39%
CCCCOc1ccc(CSc2ncn[nH]2)cc1	8%

New compounds follow
SMILES	AmpC nodet inh
CCS(=O)(=O)N1CCC(C(=O)NCCCOC)CC1	-7%
CCOC(=O)c1ccccc1NC(=O)CSc1nnc(Cc2cccn2C)n1-c1ccc(C)cc1	94%
COc1ccc(CCNc2nc(N3CCOCC3)nc(N3CCOCC3)n2)cc1OC	64%
O=c1c2ccccc2nc2n1CCCCC2	-2%
CC1CCN(S(=O)(=O)c2ccc(NC(=O)CSc3ncccc3C(=O)O)cc2)CC1	-6%
CN[C@@H]1[C@H](O[C@H]2[C@@H](O[C@@H]3[C@@H](O)[C@@H](O)[C@@H](N=C(N)N)[C@@H](O)[C@@H]3N=C(N)N)O[C@@H](C)[C@]2(O)CO)O[C@H](CO)[C@@H](O)[C@@H]1O	-4%[12.8 µM]
COc1ccccc1CN1CCC2(CC1)CCN(C(=O)c1cc(C(F)(F)F)cc(C(F)(F)F)c1)CC2	106%
CC(C)[C@H](NC(=O)OCc1ccccc1)C(=O)N[C@H](C=O)Cc1ccccc1	17%
CC(N=c1ccccn1C(=O)Nc1ccc(Cl)cc1)c1ccco1 (stereo not drawn)	-21%
CCN1CCN(Cc2ccc(NC(=O)Nc3ccc(SC)cc3)cc2)CC1	0%
N#CCCN1CCN(S(=O)(=O)c2ccc(S(=O)(=O)N3CCOCC3)cc2)CC1	5%
COCCn1c(=O)c(-c2ccc(F)cc2)nc2cnc(N(C)C)nc21	6%
CC(C)NC[C@@H](O)COc1cccc2ccccc12	24%
Cc1ccccc1CSc1nnc(C)n1N	8%
Cc1ccc(CC2CC(=O)N(CCc3ccc4c(c3)OCO4)C2=O)cc1 (stereo not drawn)	31%
CS(=O)(=O)N1CCCC(C(=O)N2CCOCC2)C1 (stereo not drawn)	-9%
Cc1ccc2oc(=O)n(CCCOc3ccccc3)c2c1	18%
Cc1ccc(N(CC(=O)N2CCN(c3ccc(F)cc3)CC2)S(=O)(=O)c2c(C)nn(C)c2C)cc1	42%
CCOC(=O)Cn1cc(C(=O)OC)c2ccccc21	4%
CCCCC(=O)Nc1cccc2c1C(=O)N(c1ccccc1)C2=O	20%
O=C(CN1CCN(C(=O)c2cccs2)CC1)NC1CCCCC1	24%
CCOc1cc(C)c(Cl)cc1S(=O)(=O)N(CC)CC	43%
COc1ccc(C(=O)CN2C3=NCCCN3c3ccccc32)cc1OC	10%
O=C(NCc1ccco1)c1ccc2c(=O)n(CC3CCCO3)c(=S)[nH]c2c1 (stereo not drawn)	-10%
Cc1nc2ccccc2c(=O)n1NC(=O)Nc1ccccc1	0%

The final 2 entries of the part above open the next one:
compound	AmpC nodet inh
O=C(NCc1ccco1)c1ccc2c(=O)n(CC3CCCO3)c(=S)[nH]c2c1 (stereo not drawn)	-10%
Cc1nc2ccccc2c(=O)n1NC(=O)Nc1ccccc1	0%
CC[C@@H](CO)NC(=O)[C@H]1C=C2c3cccc4[nH]cc(c34)C[C@H]2N(C)C1	7%
CN(CC(=O)NCC1CCCO1)S(=O)(=O)c1cc(Cl)ccc1Cl (stereo not drawn)	16%
c1csc(CN2CCC3(CCNCC3)CC2)n1	13%
C=CCOc1ccc(Cl)cc1C(=O)O	-5%
COCCCN1C(=O)C(=O)/C(=C(/O)c2ccc(OC(C)C)cc2)C1c1cccnc1 (stereo not drawn)	-10%
COc1ccc(N(CC(=O)Nc2cccc(SC)c2)S(C)(=O)=O)cc1Cl	-7%
C=CCn1c(CC(=O)OC)csc1=Nc1ccc(C(C)=O)cc1	21%
CCn1c(=O)cc(SCC(=O)N2CCC3(CC2)OCCO3)c2ccccc21	42%
NC(=O)c1ccccc1NS(=O)(=O)c1cccs1	3%
Cc1cn2c(nc1=O)OC1C(O)C(COC(=O)c3ccccc3)OC12 (stereo not drawn)	-4%

(listing goes on)
compound	AmpC nodet inh
COC(=O)c1ccc(CSc2nc3c(c(=O)n2-c2ccc(F)cc2)SCC3)o1	30%
N#Cc1cccc(-c2cncnc2NCc2cccs2)c1	-1%
C[C@H](C(=O)C=[N+]=[N-])N1C(=O)c2ccccc2C1=O	-15%
COc1ccc(C)cc1NS(=O)(=O)c1cccc2cccnc12	8%
Cc1c(NC(=O)CN2C(=O)c3ccccc3S2(=O)=O)c(=O)n(-c2ccccc2)n1C	1%
Cc1ccc(N(CC(=O)Nc2ccc(C)cn2)S(=O)(=O)c2c(C)nn(C)c2C)cc1	80%
Nc1c(S(=O)(=O)O)cc(S(=O)(=O)O)c2ccc(N=Nc3ccccc3)c(O)c12	-8%[5.75 µM]
NS(=O)(=O)c1ccc(S(=O)(=O)N(Cc2ccccc2F)CC2CCCO2)cc1 (stereo not drawn)	-12%
O=C(NC1CCCCC1)C1c2ccccc2C(=O)N1Cc1ccco1 (stereo not drawn)	-2%
COC(=O)C1=C(C)NC2=C(C(=O)CCC2)C1c1cccc(C)n1 (stereo not drawn)	-5%

(further entries)
compound	AmpC nodet inh
CCN(CC)S(=O)(=O)c1ccc2oc(C(=O)Nc3ccc(OC)cc3OC)c(C)c2c1	42%
Cc1nc2c([nH]1)C1(CCN(Cc3ccccc3)CC1)C(C#N)=C(N)O2	-11%
CCC(=O)Nc1ccc(F)c(Cl)c1	1%
O=C(NCc1cccs1)C1CCN(S(=O)(=O)c2ccc(Br)s2)CC1	-12%
O=C(NCCc1ccccc1)c1nc2c(nnn2Cc2ccccc2Cl)c(=O)[nH]1	1%
O=S(=O)(c1ccccc1)N1CCN(c2ncnc3sc(-c4ccccc4)cc23)CC1	-10%
CCOC(=O)N1CCC(N2Cc3cccc(C(=O)Nc4cc(F)ccc4F)c3C2=O)CC1	-4%
C=CCn1c(SCC(=O)Nc2ccc3c(c2)CCC3)nnc1-c1cccs1	24%
CCN(CC)c1cc(Oc2ccccc2)ncn1	19%
COc1ccc(CCCc2nnc(SCC(=O)Nc3nccs3)n2C)cc1C	41%

Next records:
compound	AmpC nodet inh
O=C(COC(=O)CCC(=O)c1cccs1)NCc1ccco1	0%
CCN(CC)C(=O)CN(c1ccc(F)c(Cl)c1)S(C)(=O)=O	12%
COC(=O)c1cc(Br)c(=O)n(CCN2CCCCC2)c1	-1%
COc1ccc(Oc2ncc3ncc(=O)n(CCc4ccccc4)c3n2)cc1	-10%
COC(=O)C(NC(=O)C(NC(=O)c1ccccc1)C(C)C)C(C)C (stereo not drawn)	4%
O=C(NC1CCCc2ccccc21)C1CCN(S(=O)(=O)c2cccc3nonc23)CC1 (stereo not drawn)	2%
CCOc1ccc2[nH]c(=O)c(CN(CCN3CCOCC3)Cc3nnnn3C(C)(C)CC)cc2c1	57%
CCOc1ccc(N(CC)S(=O)(=O)c2ccc3c(c2)oc(=O)n3C)cc1	43%
COc1cc(CNC2CCCCCC2)cc(OC)c1O	2%
CSc1ccc2[nH]c(=O)cc(C)c2c1	11%

(cont.)
compound	AmpC nodet inh
CN1CCN(c2ncc3nc(CCc4ccccc4)c(=O)n(CCC#N)c3n2)CC1	123%
CCOC(=O)N1CCN(C(=O)CN(C)S(=O)(=O)c2ccc(OC)c(OC)c2)CC1	17%
Cc1nc2oc3c(NCc4ccccn4)ncnc3c2c2c1COC(C)(C)C2	117%
C/C(CC1(O)/C(=N/O)CCc2nonc21)=N\O (stereo not drawn)	-11%
C=Cc1ccccc1C=C	-2%
CCOC(=O)Nc1ccc(S(=O)(=O)N2CCOCC2)cc1	-2%
Cc1nn(-c2ccccc2)c(Cl)c1C1C(C#N)=C(N)OC2=C1C(=O)CCC2 (stereo not drawn)	29%
c1ccc2nc3[nH]cnc3nc2c1	-12%
COC(=O)C1=C(C(=O)c2ccccc2)C(c2ccc(OC)c(OC)c2)Nc2nnnn21 (stereo not drawn)	-6%
CCCCCO	9%

Going on with the list:
compound	AmpC nodet inh
O=C(O)CC[C@@]1(c2ccccc2)NC(=O)NC1=O	-8%[5.75 µM]
Cc1nc2nc(C)c(CCC(=O)N3CCN(c4ccccn4)CC3)c(C)n2n1	-1%
Cc1ccc(S(=O)(=O)N2CCC(C(=O)OCC(=O)N3CC(=O)Nc4ccccc43)CC2)cc1	65%
COc1ccc(C2=NOC(C(=O)N3CCN(c4ccccc4OC)CC3)C2)cc1 (stereo not drawn)	53%
CCC(CC)C(=O)N1c2ccc(F)cc2CCC1C (stereo not drawn)	13%
Cc1cc(C(=O)NCc2cccs2)n(-c2ccccc2)n1	2%
Cc1c(Cl)cccc1N(CC(=O)O)S(C)(=O)=O	2%
COc1cc(OC)cc(C(=O)Nn2cc(C(=O)N3CCN(C)CC3)c3ccccc3c2=O)c1	10%
CC(C)(C)c1nnc2sc(SCC(=O)c3cccs3)nn2c1=O	-14%
CC(C)CC(=O)N(c1ccc(F)cc1)C1C=CS(=O)(=O)C1 (stereo not drawn)	1%
CCc1cccc2c(C#N)cn(CC(=O)NCCOC)c12	11%
Cn1nnc2cc(C(=O)NCCC3=CCCCC3)ccc21	13%
O=C(O)CCc1c2ccc(=O)c(O)c-2oc2c(O)c(O)ccc12	2.5µM*

An excerpt from further up, as a working copy:
compound	AmpC nodet inh
CC(C)(C)c1nnc2sc(SCC(=O)c3cccs3)nn2c1=O	-14%
CC(C)CC(=O)N(c1ccc(F)cc1)C1C=CS(=O)(=O)C1 (stereo not drawn)	1%
CCc1cccc2c(C#N)cn(CC(=O)NCCOC)c12	11%
Cn1nnc2cc(C(=O)NCCC3=CCCCC3)ccc21	13%
O=C(O)CCc1c2ccc(=O)c(O)c-2oc2c(O)c(O)ccc12	2.5µM*

Not all compounds are listed; count on the stated rates, not on these rows.
